# Lassa entry inh = qHTS for Inhibitors of binding or entry into cells for Lassa Virus; Lassa virus pseudotype entry inhibition, cell reporter; control for the full effect not named in the record; Potency, µM (top dose mostly 37.9 µM), without a hit: at the top dose activity change, negative = inhibition, hits mostly inhibitors; AID 540256, 2011; hit rate 1.2% among 300,000; active means well fitted inhibition curve with a large enough effect; inconclusive means small, poorly fitted or top-dose-only effect, or effect the other way; inactive means flat fitted curve, though single readings scatter; tested in HEK293 cells; also: % is scaled to controls: 0 for no effect and ±100 for the full control effect; nearly all actives have a fitted effect of over 50% in size; luciferase read-out
# Cruzain noTriton = qHTS Assay for Promiscuous and Specific Inhibitors of Cruzain (without detergent); hit rate 2.3% among 200,000; purified cruzain, Z-FR-AMC fluorescence, no detergent; Cruzipain (Trypanosoma cruzi), P25779; AID 1476, 2009; Potency, µM, inactives show max response, negative = inhibition, most hits filed as inhibitors;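 also: plate controls were enzyme without inhibitor for no effect and buffer without enzyme for full effect; nearly all actives have a fitted effect of over 40% in size; top concentration of the series not given in the record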
# Target sequence (P25779 123-467 limits assumed): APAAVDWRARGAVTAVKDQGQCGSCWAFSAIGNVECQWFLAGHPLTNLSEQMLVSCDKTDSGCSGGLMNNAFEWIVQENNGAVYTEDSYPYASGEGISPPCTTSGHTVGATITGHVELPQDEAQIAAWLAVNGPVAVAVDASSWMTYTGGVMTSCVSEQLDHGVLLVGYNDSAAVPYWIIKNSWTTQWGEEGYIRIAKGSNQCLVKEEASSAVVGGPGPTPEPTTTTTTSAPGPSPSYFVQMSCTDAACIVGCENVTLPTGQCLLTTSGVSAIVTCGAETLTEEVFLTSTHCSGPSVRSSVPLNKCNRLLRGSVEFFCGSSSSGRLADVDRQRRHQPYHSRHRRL
#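 Purified cruzain at 1.5 nM, pre-incubated 15 min with compound at room temperature in 100 mM sodium acetate pH 5.5, 5 mM DTT, 0.00005% Triton X-100. Reaction started with 2 uM Z-FR-AMC; AMC fluorescence increase over 60 s gives rate.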
# SARS PLP yeast = qHTS of Yeast-based Assay for SARS-CoV PLP. hit rate 0.19% among 330,000. S. cerevisiae expressing SARS-CoV PLpro, growth rescue; control for the full effect not named in the record. Potency, µM (series often up to 32.9 µM), for the others: at the top dose activity, positive = growth rescue; active means well fitted rising curve with a large enough effect; inconclusive means small, poorly fitted or top-dose-only effect; inactive means no such curve, though single readings can be large or run the other way; also: 0% is about no effect; nearly all actives have a fitted effect of over 55% in size; growth read by luminescence after 48 h
# 2A StopGo = High Throughput Screening for Foot and Mouth Disease Virus Antivirals | human cells with a luciferase reporter of 2A StopGo recoding; control for the full effect not named in the record | Potency, µM (titrated, usually from 57.9 µM), without a hit: top-dose signal change, negative = less light | hit rate 1.2% among 410,000; active = well fitted falling curve with a large enough effect; inconclusive = small, poorly fitted or top-dose-only effect; inactive = no such curve, though single readings can be large or run the other way; tested in HEK293T cells; also: % is scaled to controls: 0 for no effect and ±100 for the full control effect; nearly all actives have a fitted effect of over 45% in size; luciferase light after 4 h
# Cruzain Triton = qHTS Assay for Promiscuous and Specific Inhibitors of Cruzain (with detergent). Cruzipain (Trypanosoma cruzi), P25779. purified cruzain, Z-FR-AMC fluorescence, 0.01% Triton. Potency, µM, for inactives: max response, negative = inhibition, actives largely listed as inhibitors. hit rate 0.43% among 200,000. AID 1478, 2009;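 also: plate controls were neutral wells for no effect and buffer without enzyme for full effect; nearly all actives have a fitted effect of over 40% in size; top concentration of the series not given in the record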
#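 Compounds were screened in titration against cruzain (1.5 nM) with 0.01% Triton X-100 to counter colloidal aggregation. Activity was the AMC fluorescence increase over 60 s after adding 2 uM Z-FR-AMC at pH 5.5.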
# MARV entry inh = qHTS for inhibitors of binding or entry into cells for Marburg Virus | Potency, µM (titrated, usually from 37.8 µM), without a hit: at the top dose activity change, negative = inhibition, most hits filed as inhibitors | Marburg virus pseudotyped entry inhibition, cell reporter; control for the full effect not named in the record; about a third of the inactives were read at about 46 µM | hit rate 1.8% among 300,000 | AID 540276, 2011; active = well fitted inhibition curve with a large enough effect; inconclusive = small, poorly fitted or top-dose-only effect, or effect the other way; inactive = flat fitted curve, though single readings scatter; tested in HEK293 cells; about a fifth of its hits are not listed in these tables; also: % is scaled to controls: 0 for no effect and ±100 for the full control effect; luciferase read-out
# NS1 function inh = qHTS Assay for Inhibitors of Influenza NS1 Protein Function; hit rate 0.4% among 270,000; AID 2326, 2010; S. cerevisiae slowed by influenza A NS1, growth recovery by OD600; Potency, µM (titrated, usually from 46.1 µM), without a hit: at the highest dose activity, positive = more growth; active means well fitted rising curve with a large enough effect; inconclusive means small, poorly fitted or top-dose-only effect; inactive means no such curve, though single readings can be large or run the other way; also: nearly all actives have a fitted effect of over 50% in size
#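 Compounds were scored for reversing the slow growth caused by influenza A NS1 in S. cerevisiae, measured by optical density at 600 nm. Assay medium contained 2% galactose at pH 6.0; NS1-free yeast of the same strain were the positive control.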
# RE007 growth inh = qHTS Assay for Inhibitors of the HIV-1 protein Vpr; hit rate 0.21% among 360,000; S. pombe RE007 Vpr strain, BacTiter-Glo ATP luminescence, 24 h; control for the full effect not named in the record; AID 651644, 2012; Potency, µM (doses to about 92.2 µM), for the others: top-dose activity change, negative = less growth; active = well fitted falling curve with a large enough effect; inconclusive = small, poorly fitted or top-dose-only effect; inactive = no such curve, though single readings can be large or run the other way;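 also: % is scaled to controls: 0 for no effect and ±100 for the full control effect; nearly all actives have a fitted effect of over 50% in size; the assay follows cell death caused by Vpr and the record does not say whether a fall means rescue or toxicity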
#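 Fission yeast RE007 carrying one integrated HIV-1 vpr copy, seeded at OD 0.01 in PMG+AL medium with 23 nL pinned compound. Grown 24 h at 30 degrees; viability read by BacTiter-Glo luminescence after 5 min.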
# * hit, by the source's call; ? = inconclusive; nt = no result given; & = joins results of further samples; [ ] = remark or other dose. Unless noted, calls follow the shape of the dose curve; as a rule, active = well fitted curve in the direction sought with a large enough effect; inconclusive = small, poorly fitted or top-dose-only effect, or another doubt; inactive = no such curve, though single readings can be large; an effect the other way counts as inactive or inconclusive. Potency is read from the fitted curve at half-maximal effect.
SMILES,Lassa entry inh,Cruzain noTriton,SARS PLP yeast,2A StopGo,Cruzain Triton,MARV entry inh,NS1 function inh,RE007 growth inh
O=[N+]([O-])c1c(NCCCO)cc(Sc2ccc(Cl)cc2)c2nonc12,?,9%,12%,25µM*,-8.7%,11µM*,5%,-12%
CCc1ccc(/C=C2\SC(=S)N(CCCC(=O)Nc3ccc(C(=O)O)cc3)C2=O)cc1,nt,nt,-1%,-3%,nt,nt,-1%,4%
COCCOC(=O)C1=C(C)N(c2ccccc2)C(=O)NC1c1cccc([N+](=O)[O-])c1 (stereo not given),0%,-7%,-14%,-19%,-6.2%,0%,4%,-2%
Cc1ccc(S(=O)(=O)NCCC(=O)NCc2ccccc2)cc1,?,8%,-2%,18%,-2.1%,-1%,9%,14%
COc1cccc(CN2CCN(S(=O)(=O)c3ccc(NC(C)=O)cc3)CC2)c1OC,nt,nt,0%,-20%,nt,-12%[46.1 µM],-4%,3%
Cc1ccc(-n2c(O)c(C=NCc3ccccn3)c3ccccc3c2=O)cc1C,-6%,5%,14%,-29%,-4.0%,-17%,13%,-5%
Cc1ccc(NC(=O)Cn2c(=O)ccc3cc(S(=O)(=O)N4CCC(C)CC4)ccc32)cc1C,1%[46.1 µM],-14%,nt,-7%,-0.3%,nt,nt,nt
N/C(=N\OC(=O)c1ccccc1Br)c1cccc([N+](=O)[O-])c1,nt,nt,-5%,13%,nt,nt,-6%,-1%
CC(=O)NCCn1c(SCc2ccccc2C)nc2ccccc2c1=O,5%,?,-8%,-8%,0.7%,7%,20%,-8%[3.69 µM]
CCOC(=O)N1CCN(C(=O)CSc2nnc(-c3ccccc3OC)o2)CC1,-6%,15%,-1%,-3%,1.1%,3%&3%[46.1 µM],-5%,7%
CCn1c(SCC(=O)c2[nH]c(C)c(C(C)=O)c2C)nnc1-c1cccs1,4%,3%,-2%,?,-2.6%,-9%,-3%,8%
Cc1nc2cc(-c3cccc(F)c3)nn2c(C)c1CCC(=O)N1CCC2(CC1)OCCO2,-10%,?,-4%,7%,-1.7%,22%,-12%,-14%
O=S(=O)(Nc1ccc2c(c1)nc1n2CCN(Cc2ccccc2)C1)c1ccccc1,-9%,?,0%,?,-5.0%,3%,5%,-13%
O=C(CCCC(=O)N(c1ccc(F)cc1)C(C(=O)NC1CCCC1)c1ccc(O)cc1)Nc1ccccn1 (stereo not given),-29%[46.1 µM],nt,-1%,7%,nt,?,-12%,-1%
Cc1ccc(C(=O)N/C(=C/c2ccco2)C(=O)Nc2cccc(C(=O)O)c2)cc1,nt,nt,4%,16%,nt,nt,?,-11%
O=S(=O)(c1cccc(F)c1)N1CCN(C(=S)NCC2CCCO2)CC1 (stereo not given),-17%,nt,7%,25%,nt,-6%,0%,9%
C=CCOc1ccc(/C=C2/C(=N)N3N=C(CC(=O)N4CCCC4)SC3=NC2=O)cc1OC,nt,nt,-10%,-4%,nt,nt,?,1%
CCCCN(C)CCCN1C(=O)C2C(C(=O)Nc3cccc(OC)c3)C3C=CC2(O3)C1C(=O)NC1CCCCC1C (stereo not given),nt,nt,-2%,-6%,nt,-16%[46.1 µM],-13%,17%
COc1ccc(CC(=S)N2CCOCC2)cc1,8%,4%,4%,-22%,-3.6%,?,-3%,-11%
O=c1onc(-c2cccs2)n1Cc1ccccc1,19%,-2%,-2%,-20%,3.6%,-31%,3%,?
Cc1ccc(C)c(CN2C(=O)c3ccccc3S(=O)(=O)c3ccc(C(=O)Nc4ccccc4C(F)(F)F)cc32)c1,-2%[46.1 µM],?,nt,10%,-5.2%,?,nt,nt
CC(=O)NC1(C(F)(F)F)C(=O)Nc2c1c(=O)[nH]c(=O)n2-c1ccccc1 (stereo not given),-2%,nt,4%,-2%,nt,2%[46.1 µM],7%,7%
O=C(Nc1ccccc1)O/N=C1/CCCc2occc21,17%[46.1 µM],nt,-3%,21%,nt,15%[46.1 µM],3%,-6%
CCN1CCN(C(=O)c2ccc3c(c2)N(Cc2c(F)cccc2Cl)C(=O)c2ccccc2S3)CC1,-23%[46.1 µM],-3%,nt,-15%,4.1%,?,nt,nt
CCc1ccc2nc(NC(=O)Cn3cnc4ccccc4c3=O)sc2c1,nt,nt,0%,31%[activator],nt,nt,6%,-1%
Cc1ccccc1-n1c(SCC(=O)N2CCOCC2)nc(O)cc1=O,17%[14.3 µM],-2%,4%,4%,-2.7%,6%,?,4%
Cc1cc(C)nc(-n2nc(C)c(Sc3ccc(F)cc3)c2N)n1,4%,7%,-24%,0%,0.5%,15%,-227%,-6%
Cc1cc(C(F)(F)F)nc(NCc2ccc(F)cc2)n1,-1%,-15%,2%,0%,-8.2%,?,-16%,-9%
Nc1cc(C(=O)N/N=C/c2cccc([N+](=O)[O-])c2)n[nH]c1=O,6%,nt,1%,23%,nt,4%,-4%,4%
Cc1ccc(NC(=O)CN(C)Cc2ccc(F)cc2)c([N+](=O)[O-])c1,-6%,-8%,-22%,1%,-3.7%,0%,-7%,17%
CC(=O)N1N=C(c2ccc([N+](=O)[O-])cc2)CC1c1ccccc1Cl (stereo not given),?,nt,-12%,-8%,nt,?,-24%,20%
COc1ccc(F)cc1C(=O)C1CCCN(C(=O)CCN2CCCCO2)C1 (stereo not given),nt,nt,0%,0%,nt,nt,-3%,14%
COc1ccc(F)cc1C(=O)C1CCCN(Cc2c[nH]c3ccccc23)C1 (stereo not given),nt,nt,0%,-25%,nt,nt,6%,-5%
CC(=O)c1ccc(N2CCN(C(=O)c3ccc(Cn4c(=S)[nH]c5ccc(N6CCOCC6)cc5c4=O)cc3)CC2)cc1,10%,nt,0%,7%,nt,?,nt,10%
CCN(CC(=O)Nc1ccccc1C(F)(F)F)C(=O)C1CCC1,-8%,nt,nt,-11%,nt,0%,nt,10%
O=S(=O)(NCC(c1ccco1)N1CCN(c2ccc(F)cc2)CC1)c1ccc2c(c1)OCCO2 (stereo not given),?,16%,5%,-39%,-4.1%,?,13%,9%
CN1CCCN(C(=O)CSc2ccccc2)CC1,-2%[46.1 µM],nt,3%,9%,nt,6%[46.1 µM],-2%,10%
O=C(NCCC(c1ccccc1)c1ccco1)c1cccs1 (stereo not given),nt,nt,-20%,48%[activator],nt,nt,-38%,10%
O=C(Nc1nnc(SCc2ccc(Cl)cc2)s1)c1cnccn1,-15%,?,-9%,1%,-2.3%,?,-4%,?
NC(=O)NNC(=S)Nc1cccc2ccccc12,11%,nt,1%,-7%,nt,10%,-4%,-1%
Cc1nc2ccccc2nc1OCC(=O)Nc1ccccc1,-7%[46.1 µM],nt,1%,2%,nt,-6%[46.1 µM],9%,2%
CCCCOC(=O)/C(=C\c1ccc([N+](=O)[O-])o1)NC(=O)c1ccccc1,-18%,?,-6%,?,-0.8%,4%[46.1 µM],1%,-21%
COC(=O)C1=C(C(=O)OC)[C@@H]2N(Cc3ccccc3)c3ccccc3[C@@]23C[C@@H](C(=O)OC)N=C3N1,nt,nt,2%,-17%,nt,nt,-3%,6%
CCCN(CC)c1ncnc2[nH]ncc12,9%,nt,nt,-9%,nt,?,nt,-4%
C=CCN(C)NC(=S)Nc1ccccc1,22%,-5%,19%,-10%,-1.2%,-32%,7%,-2%
C=C(C)COc1ccc(-c2ncnc(C(F)(F)F)c2-c2ccccc2)c(O)c1,?,nt,0%,10%,nt,?,-5%,1%
Cc1cc(S(=O)(=O)Nc2cccc(O)c2)c(C)s1,16%,-6%,13%,8%,0.4%,-5%,4%,6%
CCOC(=O)CC1ON(C)C(=O)N1c1ccc(Cl)cc1Cl (stereo not given),-2%,0%,nt,-13%,-0.6%,?,-94%,-12%
Cc1nc2ccccn2c1C(=O)N/N=C/c1ccc(F)cc1,?,nt,19%,1%,nt,?,-2%,-13%
COC(=O)c1cc(S(=O)(=O)N2CCN(c3ccccc3OC)CC2)cn1C,4%[46.1 µM],nt,-1%,-9%,nt,-30%[46.1 µM],-15%,-24%
Cc1nnc(SCC(=O)Nc2ccc3c(c2)OCCO3)n1N,2%,-9%,-7%,18%,2.4%,1%,-6%,-14%
Cc1ccc(C(=O)N2CCCC2)cc1S(=O)(=O)Nc1cccc(C)c1C,-20%[46.1 µM],nt,1%,19%,nt,-17%[46.1 µM],-1%,2%
CCSc1nnc(NC(=O)c2c(-c3ccccc3Cl)noc2C)s1,19%,0%,-14%,-18%,-4.9%,?,?,-8%
Cc1ccc(NC(=O)CN2C=NS(=O)(=O)c3ccccc32)cc1,23%[46.1 µM],23%,nt,35%[activator],0.6%,nt,nt,nt
CC(=O)c1cc2c(cc1NC(=O)CN1CCCCCCC1)OCO2,-22%,1%,-7%,-11%,1.4%,-11%,4%,11%
O=C(OCCN1CCOCC1)c1ccc(Cl)cc1Cl,nt,nt,-4%,46%[activator],nt,nt,-6%,-10%
CC(=C1C(=O)c2ccccc2C1=O)N1CCN(CCN=Cc2c(O)n(C)c(=O)n(C)c2=O)CC1,-1%,3%,16%,14%,-6.1%,26%[46.1 µM],14%,0%
Cc1nnc(SCCOC(N)=O)n1C,7%,-2%,-2%,-11%,2.4%,-3%,-20%,-4%
Cc1nc2c(C#N)c(-c3ccc(Cl)cc3)ccn2n1,5%[46.1 µM],nt,1%,6%,nt,4%[46.1 µM],-1%,12%
CC(=C\c1ccccc1)/C=C1/SC(=O)N(CCCC(=O)Nc2ccc(C(=O)O)cc2)C1=O,-12%[46.1 µM],nt,1%,9%,nt,?,4%,-11%
Cn1ncc(Cl)c1C(=O)N1CCN(c2ccc(F)cc2)CC1,1%,nt,9%,-14%,nt,10%,3%,7%
O=C(Nc1nnc(Cc2ccc([N+](=O)[O-])cc2)s1)c1ccc2c(c1)OCO2,-10%,nt,-1%,22%,nt,9%,0%,-2%
O=C(NCCc1ccccc1)c1ccc(NC2=NC3CS(=O)(=O)CC3S2)cc1 (stereo not given),nt,0%,9%,-2%,2.5%,nt,3%,18%

# Compound activity deposited in PubChem by National Center for Advancing Translational Sciences (NCATS).
